Beta2AR agonist = agonists of human beta-2 adrenergic receptor inducing internalization; Am2.2-beta2AR cells, FAP receptor internalization, flow cytometry; reference of the scale not given here; 0.43% of 340,000 active; response, % (concentration not given with the values);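 active means response above a set limit, near 3 SD of response in nonfluorescent compounds, cut at about 42% in these data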;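 further: stock transfer was 100 nL into about 11 µL; a reference agonist was the positive control; negative values mostly stem from fluorescent compounds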
Target sequence (P07550 whole entry, looked up): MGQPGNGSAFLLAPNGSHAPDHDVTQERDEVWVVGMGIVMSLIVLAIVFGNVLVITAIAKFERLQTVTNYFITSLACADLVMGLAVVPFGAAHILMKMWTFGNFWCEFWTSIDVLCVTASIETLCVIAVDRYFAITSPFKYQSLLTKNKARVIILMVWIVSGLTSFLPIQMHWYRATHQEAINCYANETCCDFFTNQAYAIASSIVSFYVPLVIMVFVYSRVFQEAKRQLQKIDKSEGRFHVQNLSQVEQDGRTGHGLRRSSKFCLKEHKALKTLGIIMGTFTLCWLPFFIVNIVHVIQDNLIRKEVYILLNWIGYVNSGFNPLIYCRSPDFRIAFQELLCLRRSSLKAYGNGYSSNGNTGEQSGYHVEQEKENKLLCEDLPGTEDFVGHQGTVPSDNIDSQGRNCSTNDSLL
T cruzi inh = T. cruzi replication inhibition; 1.4% of 300,000 active; AID 1885; inhibition, % (no concentration beside the values); T. cruzi beta-gal in NIH3T3, luminescence, 90 h;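 active means mean inhibition across valid replicates above about 55%, limit read from the data; inconclusive means mean below that limit but half or more replicates reach it; inactive means mean below it, under half of replicates reach it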;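 further: signal also drops with host cell toxicity which is not excluded here; 0% = plate median of DMSO wells and 100% = zero luminescence signal; higher percent means less beta-gal luminescence so fewer parasites; stock transfer was 50 nL into about 50 µL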
Ecoli rRNA inh = inhibitors of bacterial rRNA selective over humanized ribosomes. GFP signal change (wild-type ribosome), % (concentration not given with the values). E. coli WT GFP vs humanized-ribosome RFP mutants, fluorescence, 24 h; active compounds read low; DMSO median 0, no signal -100. AID 720706. 1.6% of 350,000 active;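 active means significant combined selectivity score with lowered wild-type GFP, culture density cut under 30%, mutant RFP and density less affected; inactive means any of these conditions unmet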; further: one replicate is shown; some compounds called inactive have numbers as strong as hits
ALR H2O2 inh = inhibitors of human sulfhydryl oxidase ALR; purified ALR, DTT oxidation, H2O2 HRP-luminol luminescence; 3.8% of 290,000 active; inhibition, % (test concentration not listed); P55789;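 active means mean and each replicate at 75% or more; inconclusive means only one of the two met; inactive means neither met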;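 further: stock transfer was 7.5 nL into about 7.5 µL; 0% = neutral wells and 100% = wells with inactivated enzyme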
Target sequence (P55789 whole entry, looked up): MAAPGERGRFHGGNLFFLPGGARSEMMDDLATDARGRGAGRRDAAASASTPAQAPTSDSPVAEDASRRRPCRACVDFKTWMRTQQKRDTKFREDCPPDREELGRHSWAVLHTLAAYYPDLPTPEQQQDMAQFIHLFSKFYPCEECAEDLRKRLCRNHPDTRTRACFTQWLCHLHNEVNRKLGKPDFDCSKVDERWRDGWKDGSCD
A1 inh = inhibitors of the anti-apoptotic protein A1, read as caspase activation | AID 2462 | MEF A1-2A-BIM cells, Caspase-Glo 3/7 luminescence, 3 h; percent of clofoctol response, vehicle zero | 0.066% of 330,000 active | caspase activation, % (concentration not given with the values);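 active means over half of replicate activation scores above 10%, or exactly half above 10 with the replicate mean above 10; inconclusive means replicate mean below 10 yet half the replicates above 10; inactive means over half of replicates below 10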;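 further: wells of about 30 µL received 50 nL stock; many hits fall short of the cut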
Beta apoptosis = blocks beta cell apoptosis; INS-1E cytokine-induced death, ATP luminescence, 48 h; percent of positive-control rescue, neutral wells zero; protection from apoptosis, % (concentration not given with the values); 0.8% of 300,000 active; AID 435005;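 active means all replicates at 75% or more, or half of them and the mean; inconclusive means half reach 75% but not the mean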;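 further: 0% = cytokine-treated negative control wells and 100% = positive control rescue; higher means more ATP so stronger rescue from cytokine killing; wells of about 40 µL received 100 nL stock; the first replicate is given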
LANA-H2B inh = blocks KSHV LANA binding to histone H2A/H2B; cell-free LANA-H2A/H2B peptide, fluorescence polarization; 0.6% of 320,000 active; Q9QR71; inhibition, % (no concentration beside the values); in the data active means inhibition mostly above about 10%, no sharp cut-off; inactive means mostly below about 6.7%;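 further: stock transfer was 7.5 nL into about 10 µL; 0% = median of vehicle wells and 100% = median of positive control wells; one replicate is shown; the record names a cut of 25% in any replicate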
Calb FLC = C. albicans growth modulation with fluconazole; growth inhibition, % (concentration not given with the values); 0.57% of 300,000 active; C. albicans CaCi-2 (fluconazole-resistant clinical isolate) + fluconazole, Alamar Blue growth, 48 h; AID 1979;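 active means most replicates above 75%; inconclusive means exactly half above 75%; inactive means most below 75%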;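 further: all wells also contain fluconazole at 8 µg/ml as a sub-toxic cotreatment; 0% = median of DMSO wells and 100% = median of geldanamycin control wells; wells of about 8 µL received 7.5 nL stock; the first replicate is given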
Ecoli rRNA inh OD600 = also measured in Ecoli rRNA inh; calls as there; OD600 change, %; measured here: OD600 growth;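 optical density of the mix in the first replicate; 0 = DMSO median and -100 = no signal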
Ecoli rRNA inh RFP = further read-out of Ecoli rRNA inh, marked with its call; RFP signal change, %; measured here: RFP humanized mutant strains;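 first replicate; 0 = DMSO median and -100 = no signal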
* = called active by the depositor; ? = inconclusive; / = not tested or not shown; & = joins results of further samples. This is a subset; the hit share may differ from the screen's.

Sequence of screens: Beta2AR agonist, T cruzi inh, Ecoli rRNA inh, Ecoli rRNA inh OD600, Ecoli rRNA inh RFP, ALR H2O2 inh, A1 inh, Beta apoptosis, LANA-H2B inh, Calb FLC
C[C@@H](CN1C2=NC[C@H](C)N2C[C@H]1Cc1ccc(O)cc1)NC(=O)CCC1CCCCC1
    -7, -4, -3, -3, 1.4, -16, 0.7, -2, 0.6, -7
CC(=O)NC(Cc1ccc(F)cc1)C(=O)NC1CCN(C(=O)NCc2ccccc2)CC1 (stereo unspecified)
    0, 1, 6, 3, -1.9, /, 0.4, -7, -4.7, -1
Cc1ccc(-c2nnc(SCC(C)C)n2C)cc1
    -3, 10, /, /, /, -11, -0.7, 2, -0.8, 8
COc1cc(C2NC(=S)NC(c3ccccc3)=C2C(C)=O)ccc1O (stereo unspecified)
    -6, -3, -1, -1, 2.4, 46, 0.5, -7, 0.0, -7
COc1ccc(/C=C/C(=O)NCCOc2ccc(C)cc2)cc1
    -13, 15, /, /, /, -5, -0.2, 3, -2.7, 1
CCCCC(=O)NC(=O)NC(c1ccccc1)c1ccccc1
    3, 12, -4, 2, 0.0, -7, -1.0, -4, -3.7, 4
Cc1cc(C)cc(NCc2cc(=O)oc3cc(-c4ccccc4)c(O)cc23)c1
    3, -15, /, /, /, /, -1.5, -9, -0.6, 1
Cc1nc(NC(=O)/C=C/c2ccccc2)sc1C(=O)Nc1ccccc1
    7, -20, /, /, /, -1, 0.6, 6, -4.4, 7
COc1ccccc1CNC(=O)COC(=O)c1cccc(S(=O)(=O)N2CCOCC2)c1
    9, -13, 3, -1, 1.4, ?, 0.6, 0, 5.1, 0
O=C(O)CCSc1nc2ccccc2n1CCOc1ccccc1
    4, -2, -2, 0, 3.2, -3, 0.2, 7, 2.7, 0
Cc1ccc(NCc2nc(SCC(=O)Nc3ccccc3)n[nH]2)cc1
    4, -7, -5, -2, 3.0, 0, -0.9, -7, -4.9, 2
CNC[C@H]1Oc2ccc(NC(=O)C3CCCCC3)cc2CC(=O)N([C@H](C)CO)C[C@@H]1C
    -14, /, 27&4, 8&6, 0.9&0.7, 0, -0.1, -8, -6.3, /
CC(=O)Nc1ccccc1Sc1ccc2c3c(cccc13)C(=O)N(c1ccc(C)cc1)C2=O
    -4, -11, /, /, /, -4, 0.0, 14, -3.5, 4
CC(NC(=O)COC(=O)c1cc(NS(=O)(=O)c2ccc(Cl)c([N+](=O)[O-])c2)ccc1O)C1CC2CCC1C2 (stereo unspecified)
    11, 0, /, /, /, 2, 0.0, -1, 8.0, ?
CCn1c(SCC(=O)O)nc2ccccc21
    -5, -19, 3, -4, 0.0, 12, 0.4, 28, 0.4, -3
CCN(CC)S(=O)(=O)c1cccc(C(=O)OCC(=O)NC(C)c2ccccc2)c1 (stereo unspecified)
    3, -1, -2, -9, -0.1, -4, 0.9, 2, -0.1, -11
Cc1ccc2[nH]c(=O)c(C(c3nnnn3C(C)(C)C)N3CCN(C(=O)c4ccco4)CC3)cc2c1 (stereo unspecified)
    4, -17, /, /, /, -2, -0.1, 3, 0.7, -1
O=C1CCCC2=C1C1(O)C(=O)c3ccccc3C1(O)O2 (stereo unspecified)
    -17, -1, /, /, /, 8, 0.3, 2, -2.1, 10
CCC1Oc2ccc(C)cc2N(CC(=O)N2CCOCC2)C1=O (stereo unspecified)
    7, -4, 4, 7, -3.4, 3, -0.3, -2, -4.1, -3
Cc1ccc2nc(-c3ccccc3NC(=O)CCC(=O)O)c(=O)[nH]c2c1
    5, -17, 10, 14, -1.7, 29, 0.3, /, 2.1, -5
O=C(COC(=O)c1ccccc1)NC1CCCCCC1
    -8, /, 5, 3, 1.6, 3, -0.6, -5, -2.2, /
O=c1c(Sc2ccccc2)c(C(F)(F)F)[nH]n1-c1ccccc1
    17, -8, /, /, /, 35, -0.9, 2, -1.9, ?
CCCCCCCCCCC(=O)Nc1cccnc1
    /, -9, -32, -53, 1.8, -2, -0.3, -1, -2.3, 5
O=C(NCc1ccccc1)C1CCC(CNc2c(N3CCCCC3)c(=O)c2=O)CC1 (stereo unspecified)
    8, -2, 3, 4, -2.3, -3, 0.9, /, -7.1, 3
COCCCOc1cc(NCc2ccccc2)c2ncn(C(C)C)c2c1
    4, /, -8, -11, 17, 44, -0.9, 1, -1.3, /
Cc1ccc(OCc2nnc(SCC(=O)Nc3ccc4c(c3)OCO4)n2C)cc1
    8, 0, /, /, /, /, 0.5, 2, 5.7, -6
CC1(C)CC(=O)c2c(oc3cc(O)c(O)cc23)C1
    3, -32, /, /, /, 43, -0.4, 2, 6.9, -33
O=C(Nc1cccc(S(=O)(=O)Nc2ccccc2F)c1)c1ccc2ccccc2n1
    12, ?, -19, -22, 3.4, 1, 0.7, -2, -6.3, 70
C[C@H]1COC(=O)[C@@H](Cc2ccc(F)cc2)C/C=C\C[C@@H](CC(=O)N[C@@H](CO)Cc2ccccc2)C(=O)N1
    2, /, 6, 6, -9.3, 3, 0.9, 3, 3.4, /
Cc1ccc(S(=O)(=O)Nc2ccc(N3CCOCC3)cc2)cc1C
    8, 5, -4, -6, 0.0, ?, 0.0, 0, -2.5, 3
O=C(NNC(=O)C12CC3CC(CC(C3)C1)C2)c1ccccc1O
    -2, /, /, /, /, 7, -0.1, 70, 2.0, /
CC(=O)c1ccc(N(CC(=O)NC2CCCC2)C(=O)CNC(=O)c2cccs2)cc1
    -5, 0, 3, 7, -1.1, /, 0.5, -8, -3.7, 20
CCCCSc1oc(-c2ccco2)nc1S(=O)(=O)c1ccccc1
    -10, 11, -24, -50, -0.1, -13, -0.4, 5, 6.4, -4
O=C(CN1C(=O)NC(c2ccc(F)cc2)C1=O)NC1CCCCC1 (stereo unspecified)
    -1, /, /, /, /, -7, 0.1, -13, -2.4, /
Cc1cccc(NC(=O)[C@H](Cc2ccccc2)NC(=O)OCc2ccccc2)c1
    -4, -1, /, /, /, -1, -0.1, -8, 4.3, -17
N#CC1=C(SCc2ccccc2)NC(=O)CC1c1ccco1 (stereo unspecified)
    3, -1, /, /, /, 100*, 0.3, 0, -5.9, 7
N#CCCN(C(=O)COC(=O)c1ccc2c(=O)n3c(nc2c1)CCC3)c1ccc(F)cc1
    4, -10, 3, -4, -2.3, -22, 0.0, -9, 3.2, ?
COc1cccc(CNC(=O)c2ccc(COc3ccccc3)cc2)c1
    28, -3, -9, -10, -2.6, -2, -0.2, 3, 2.6, 0
COc1ccc([C@H]2CC(=O)C=C(c3cc(Br)ccc3OC)C2)cc1
    -7, /, -10, -20, -18, 0, 0.3, 4, -3.8, /
Cc1ccc(CNC(=O)C2CC(c3ccccc3[N+](=O)[O-])=NO2)o1 (stereo unspecified)
    -3, -13, 3, 2, -0.7, 16, -3.1, -15, -2.2, -5
COc1cccc(N2CCN(C(=O)c3cc(-c4ccccc4)nc4c3cnn4C(C)C)CC2)c1
    1, /, 9, 6, 0.4, -17, -0.4, 0, -1.0, /
CSc1ccccc1OCc1cc(C(=O)N(C)C(C)c2ccccn2)no1 (stereo unspecified)
    7, -7, -7, -11, 2.6, -8, 1.2, -6, -0.4, -4
Cc1ccc(CNC(=S)NC2CCCCC2)cc1
    -5, -27, -4, -22, -3.9, -5, 1.0, -2, 1.1, -32
O=S(=O)(O)c1nc2ccccc2n1Cc1ccc(Cl)cc1
    1, -16, /, /, /, 1, 1.9, 2, 0.8, -7
COc1ccccc1N1C(=O)N(C(C)=O)C2C1Nc1ccccc1N2C (stereo unspecified)
    5, 22, 8, 11, 9.1, 15, 0.5, 3, -4.6, 2
CCCCN(C(=O)C1CCCO1)c1c(N)n(CC(C)C)c(=O)[nH]c1=O (stereo unspecified)
    1, 0, 10, 5, -1.0, -13, -0.1, 1, -0.5, -6
Cc1ccc(CNC(=O)CCC2CCCN(C(=O)c3ccc4c(c3)OCO4)C2)o1 (stereo unspecified)
    8, -3, -1, -3, 6.4, -8, -2.1, -11, 1.5, 8
CCN(CC)C(=O)N1CCN(C(=O)N2CCOCC2)CC1
    -1, 3, 11, 3, -3.2, -5, -0.3, /, 3.9, 20
Cc1ccc(S(=O)(=O)NC(CC(C)C)C(=O)N2CCCCCCC2)cc1 (stereo unspecified)
    4, 7, -5, 6, 1.9, /, 0.0, -3, -3.1, 4
Cc1cc(C)n2nc(SCC(=O)c3ccccc3)nc2n1
    -6, -24, 3, 0, 1.2, 18, 0.5, -6, 3.8, 3
COc1ccccc1C(=O)N(C1=NC(C)CS1)c1ccc(Cl)cc1 (stereo unspecified)
    6, -4, -1, -23, -6.2, -4, 0.1, -6, 3.4, -2
N#Cc1nc(-c2ccc(Cl)cc2)oc1NCC1CCCO1 (stereo unspecified)
    1, -12, 7, 1, -3.9, 17, 0.2, -7, -3.9, -5
CN(C)S(=O)(=O)c1cc(NC(=O)CN2CCOCC2)ccc1Cl
    0, -13, 4, 7, -1.1, -20, -0.8, -1, 1.1, -17
CCOC(=O)N1CCC(NC(=O)CN2C(=O)C(CC)Oc3ccc(C)cc32)CC1 (stereo unspecified)
    -8, 7, /, /, /, -5, -0.5, 8, -2.2, -2
Cc1ccc(S(=O)(=O)Cc2ccc(C(=O)NC3CCCCCC3)o2)cc1
    -4, 1, -5, -13, -5.2, -11, 0.5, -2, 11, 9
COc1cc(/C=N/NC(=O)NC2CCCCC2)cc(OC)c1O
    -4, -12, 0, 6, -0.8, 99*, -0.9, 1, -2.6, 6
Cc1cc(Cl)cc(C)c1OCC(=O)NC1CCCCCC1
    -6, /, 4, 13, -1.5, -7, 0.8, -2, -1.3, /
O=c1cccccc1NN=C1CCCCCC1
    -1, 10, 28, 7, 1.6, 8, -4.8, 1, 2.0, -5
CC1CCCCN1C(=O)c1cc(S(=O)(=O)N2CCCCC2)c[nH]1 (stereo unspecified)
    3, -13, 2, 3, 0.0, 4, 0.4, -4, 2.1, -6
O=C(c1ccc(S(=O)(=O)N2CCOCC2)cc1)N1CCc2ccccc21
    5, 24, 1, 3, -1.4, -8, 0.7, -3, 2.8, -6

The list goes on.
Sequence of screens: Beta2AR agonist, T cruzi inh, Ecoli rRNA inh, Ecoli rRNA inh OD600, Ecoli rRNA inh RFP, ALR H2O2 inh, A1 inh, Beta apoptosis, LANA-H2B inh, Calb FLC
CCOc1ccc(N(CC(=O)NCCOc2ccc(C)cc2)S(=O)(=O)c2ccccc2)cc1
    -10, 30, 5, 4, -2.1, -15, 0.6, /, -5.1, -4
O=C(Nc1ccc(N2CCCC2)cc1)c1cc2ccccc2o1
    9, 21, -8, 8, 3.9, -21, -0.7, 21, -2.9, 13
O=C(NCCO)c1cccc(Nc2nc(-c3ccccc3)c3cc(Cl)ccc3n2)c1
    -1, 1, /, /, /, 75, 0.1, 0, 3.8, 37
O=c1[nH]c2cc3c(cc2cc1C(c1nnnn1CC1CCCO1)N1CCCCCC1)OCCO3 (stereo unspecified)
    6, 12, /, /, /, -31, 0.6, 1, 2.7, -14
COC(=O)CCC(=O)CN
    -7, 6, 7, 4, 1.1, 2, 1.0, 6, -11, /

Source: PubChem BioAssay
